GLA inh pH 4.5: inhibitors of human alpha-galactosidase A at pH 4.5; P06280; AID 1467; 230,000 tested, under 10 active; purified enzyme, 4-MU-alpha-Gal fluorescence, pH 4.5; activity change, negative = inhibition, % at 105 µM; inconclusive = small, poorly fitted or top-dose-only inhibition, or a rising curve; inactive = flat fitted curve, though single readings scatter; no compound was filed as active;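 further: 0% = full activity with enzyme and -100% = basal without enzyme; dose as in the result columns while the protocol names 77 µM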
Target sequence (P06280 whole entry, looked up): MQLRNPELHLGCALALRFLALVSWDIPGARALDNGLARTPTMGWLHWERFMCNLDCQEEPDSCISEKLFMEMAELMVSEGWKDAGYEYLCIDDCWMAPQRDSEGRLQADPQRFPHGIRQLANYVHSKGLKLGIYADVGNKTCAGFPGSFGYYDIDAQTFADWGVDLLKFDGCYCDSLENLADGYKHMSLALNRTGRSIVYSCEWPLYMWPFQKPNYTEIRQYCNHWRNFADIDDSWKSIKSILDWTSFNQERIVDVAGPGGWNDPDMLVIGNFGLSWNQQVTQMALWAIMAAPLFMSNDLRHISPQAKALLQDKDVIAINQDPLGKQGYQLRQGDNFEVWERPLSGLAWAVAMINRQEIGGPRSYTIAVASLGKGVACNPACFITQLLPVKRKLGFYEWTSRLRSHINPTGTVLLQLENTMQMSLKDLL
Rango complex inh: Rango-importin beta binding inhibition; Potency, µM (doses to about 92.2 µM), for inactives: top-dose inhibition of complex formation; hit rate 0.031% among 340,000; Rango CFP/YFP FRET sensor + importin beta, 45 min; AID 540263; Q14974; active = rising FRET ratio curve, often small or poorly fitted; inconclusive = mostly compound fluorescence or quenching in the first reads; inactive = flat curves in all reads;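 further: potency means the concentration at half of the fitted maximal effect; 0% = DMSO wells and 100% = buffer wells lacking importin beta; nearly all actives have a fitted effect of over 15% in size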
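FRET biosensor (snurportin 1 IBB flanked by EYFP and cerulean), 50 nM, with compound 5 min, then 0.125 microM importin beta in PBS, 1 mM DTT, 0.02% Tween-20, 0.1% BSA. CFP/YFP ratio read after 45 min at room temperature; pre-read flags interference.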
miR-21 FLuc: miR-21 reporter, rising signal. HeLa miR-21 FLuc reporter, luciferase, 48 h. Potency, µM (top dose mostly 38.3 µM), for the others: at the top dose reporter change, positive = more light. 340,000 tested, under 10 active. AID 2288; active = well fitted rising curve with a large enough effect; inconclusive = small, poorly fitted or top-dose-only effect; inactive = no such curve, though single readings can be large or run the other way;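 further: % of control where 0% means no effect; miR-21 action dims this reporter so a rising signal means less miR-21 action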
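Compounds were titrated across several concentrations (up to approximately 40 uM) and incubated 48 hours with HeLa miR-21-FLuc reporter cells (miR-21 target sequence downstream of FLuc, endogenous miR-21). Readout was firefly luciferase luminescence after lytic detection reagent.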
Rango dissoc inh: inhibitors of RanGTP-induced Rango-importin beta complex dissociation; O95149+P62826; Biochemical FRET Rango-importin beta, RanGTP-induced dissociation; Potency, µM (top dose mostly 46.1 µM), for the others: top-dose activity change, negative = inhibition; hit rate 0.071% among 340,000; active means falling FRET ratio curve, often poorly fitted, with flat reads before Ran was added; inconclusive means other falling curves, or compound fluorescence or quenching; inactive means flat or rising ratio curve;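 further: potency means the concentration at half of the fitted maximal effect; % of control where 0% means no effect; nearly all actives have a fitted effect of over 45% in size; -100% = wells without RanGTP and RCC1; the record marks most hits as doubtful in a second field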
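Rango (0.1 uM)–importin beta (0.25 uM) complex; RanGTP-RCC1 trigger; 45 min RT; CFP/YFP FRET read.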
Active calls of the source: *; u = inconclusive; x = no result given; & = joins results of further samples; [ ] = another dose, or the depositor's remark. A portion of the library (hit frequency here may not be typical).

SMILES	GLA inh pH 4.5	Rango complex inh	miR-21 FLuc	Rango dissoc inh
NS(=O)(=O)c1ccc(CNC(=O)C2CCCN2C(=O)c2cccs2)cc1 (stereo not given)	x	0.6%	x	-9%
CCNS(=O)(=O)c1cc(Br)ccc1OC	4	0.1%	-5%	11%
Cc1ccc(Nc2nc(NCCCN3CCOCC3)nc(N)c2[N+](=O)[O-])cc1C	-2	-0.9%	-14%	6%
CC(CCc1ccccc1)NC(=O)CNc1cccc([N+](=O)[O-])c1 (stereo not given)	x	-5.2%	0%	4%
COc1ccccc1N(C(=O)CNC(=O)c1ccco1)C(C(=O)NC1CCCC1)c1ccncc1 (stereo not given)	-5	-2.4%	-6%	-3%
Cc1ccc2cc(C)c(SCC(=O)Nc3cc(C)on3)nc2c1	x	-1.5%	-1%	0%
CCCCOc1ccccc1Cn1c(=O)oc2ccccc21	-3	-1.4%	-8%	5%
CCOc1cc2c(cc1OCC)C(C(=O)O)C(c1cc(OC)c(OC)c(OC)c1)N(C)C2=O (stereo not given)	5	-5.2%	-4%	-8%
Cc1cc(C)n(-c2ncnc3sc(C)c(C)c23)n1	-9	-0.2%	-14%	-16%
COc1ccc(NC(=O)Cn2nc(C)c([N+](=O)[O-])c2C)cn1	-1	-0.1%	-2%	-6%
COc1ccc(CNC(=O)C(c2ccncc2)N(C(=O)Cc2cccs2)c2cccc(C)c2)cc1 (stereo not given)	8	-5.3%	1%	10%
O=S(=O)(Cc1ccccc1)c1ccccc1-c1nnc(-c2ccccc2)o1	-1	-1.6%	-3%	0%
CCN(CC)c1ncnc2scc(C3COc4ccccc4O3)c12 (stereo not given)	-6	1.1%	1%	5%
CCCCN(C(=O)NC(=O)Nc1ccccc1C)S(C)(=O)=O	-6	-2.6%	-6%	13%
CN(C)c1ccc(/C=C/c2cc[n+]([O-])cc2)cc1	-24	x	-47%	x
COc1cc(/C=N/NC(=O)c2c(-c3ccccc3)noc2C)cc(OC)c1OC	-8	-0.2%	-8%	-10%
CCOc1cc(C2Nc3ccccc3C(=O)N2c2ccccc2)c(Br)cc1OCC(=O)O (stereo not given)	1	0.7%	-21%	0%
C=CCN(C(=O)CNC(=O)c1ccco1)C(C(=O)NC1CCCCC1)c1ccccc1F (stereo not given)	2	-1.2%	-11%	-9%
O=C(NC1CCCC1)C(c1ccncc1)N(C(=O)Cc1cccs1)c1ccccc1 (stereo not given)	3	0.8%	-2%	0%
CCn1cc(C(=O)OCC(=O)c2cc(C)n(-c3ccc(OC(F)F)cc3)c2C)c(=O)c2ccc(C)nc21	-3	0.6%	-1%	-3%
COc1ccc(CC(=O)OCC(=O)N2CCN(S(=O)(=O)c3ccc(C)cc3C)CC2)cc1OC	x	-0.1%	x	-11%
O=C(COC(=O)C1COc2ccccc2O1)NC(=O)Nc1ccc2c(c1)OCCO2 (stereo not given)	-4	1.1%	-34%	1%
O=C(Nc1ccn(Cc2c(F)c(F)cc(F)c2F)n1)c1cccc(Cn2cc([N+](=O)[O-])cn2)c1	0	1.6%	17%	13%
CCC(ONc1ccccc1C(F)(F)F)(C(=O)NN(C)C)c1ccccc1 (stereo not given)	x	-3.8%	x	1%
Cc1cnc([N+](=O)[O-])n1CCOC(=O)NC(=O)c1ccc(C(F)(F)F)cc1	-29	2.5%	2%	9%
O=C(NS(=O)(=O)Oc1ccc(F)cc1F)OC[C@@H]1CCCN2CCCCC12 (stereo not given in full)	x	-0.4%	-3%	7%
O=C1CCC(/C=C/c2ccccc2)=NN1Cc1ccc(Cl)c(Cl)c1	6	-1.9%	-5%	0%
COc1cc(OC)c(C2=NOC(C(=O)NCCc3ccccc3)C2)cc1Cl (stereo not given)	-2	-2.2%	-9%	0%
COc1cccc(NC(=S)N2CCCC2)c1	-4	0.1%	-12%	-12%
CCn1nc(NC(=O)c2ccco2)c2cc3cc(C)ccc3nc21	1	u	0%	u
COc1ccc(S(=O)(=O)NCc2ccccn2)cc1OC	x	-2.0%	0%	-6%
Cc1ccc2nc(C)c(C(=O)N/N=C/c3ccc(C(=O)O)cc3)cc2c1	0	1.1%	-1%	1%
COc1ccc(/C=C2\SC(=O)N(CCC(=O)NCCCn3ccnc3)C2=O)cc1	x	2.1%	-10%	-1%
CCC(C)NC(=O)CCc1c(C)nc2nc(-c3cc(OC)cc(OC)c3)nn2c1C (stereo not given)	3	0.5%	-5%&-2%	1%
COc1cccc(OC)c1OCCN(C)C	1	0.7%	-5%	7%
COc1ccc(OC)c(C(=O)CN2C(=O)NC(C)(c3ccccc3)C2=O)c1 (stereo not given)	-19	-2.2%	-18%	11%
O=C(CCCOc1ccc(Cl)cc1Cl)NNC(=O)c1ccc(NC(=O)c2ccccc2)cc1	1	0.5%	3%	-1%
CN(C(=O)COc1ncnc2c1cnn2-c1ccccc1)C1CCCCC1	-1	-2.0%	1%	-22%
O=[N+]([O-])c1cc(C(F)(F)F)cc([N+](=O)[O-])c1NN=C1CCCCC1	0	2.4%	-1%	-21%
O=C(O)c1cccc(NS(=O)(=O)c2ccc(NC(=O)c3ccco3)cc2)c1	8	-2.9%	1%	-2%
C=CCNC(=O)CN1CCC(c2nc3ccccc3[nH]2)CC1	x	-1.6%	0%	-5%
COc1ccc(S(=O)(=O)N2CCOCC2)cc1NC(=O)CCNC(=O)c1ccc(Br)cc1	x	0.3%	x	1%
COc1ccc(S(=O)(=O)NCc2cccnc2)cc1Br	x	3.5%	14%	0%
Cc1ccc2cc(CCNC(=O)c3ccc4c(c3)OCO4)c(=O)[nH]c2c1C	6	u	-3%	-10%
CCCn1c(=O)c(C(=O)NNS(=O)(=O)c2ccc(NC(=O)OC)cc2)c(O)c2ccccc21	x	0.8%	0%	10%
CC(C)[C@@H](CO)NS(=O)(=O)c1ccc(Br)cc1F	x	2.2%	x	16%
Cc1cc(NC(=O)Nc2ccc(Cl)c(Cl)c2)no1	x	-0.4%	x	-12%
CC(=O)c1ccc(OC(=O)C(CCS(C)(=O)=O)N2C(=O)c3ccccc3C2=O)cc1 (stereo not given)	-4	u	-2%	u
Cc1oc(-c2cccc(Cl)c2)nc1CSCC(=O)O	-5	-3.6%	20%&23%	-9%
CCc1ccc(N2C(=O)CN(Cc3cccs3)C2=S)cc1	-11[21.1 µM]	-2.1%	-22%	4%
The list goes on.
SMILES	GLA inh pH 4.5	Rango complex inh	miR-21 FLuc	Rango dissoc inh
Cc1ccsc1/C=N/NC(=O)CO	10	4.6%	2%	0%
CCOC(=O)c1cnc(-n2nc(C)cc2C)nc1NCCc1ccccc1	-9	-0.9%	u	5%
CCN(CC)S(=O)(=O)c1ccc2oc(Nc3ccc(OC)cc3OC)nc2c1	x	-1.0%	-3%	-15%
Cc1cccn2c(=O)c3cc(C(=O)N4CCN(C(=O)c5ccco5)CC4)n(C)c3nc12	14	2.7%	-6%	-3%
CCc1cc(CNC(=O)c2ccc3nc(Cc4ccc(OC)c(OC)c4)oc3c2)on1	x	0.0%	20%	0%
O=C(c1cc(S(=O)(=O)N2CCOCC2)ccc1Cl)N1CCOCC1	x	0.1%	-3%	-2%
COc1ccc(/C=N/Nc2nc(N3CCCC3)nc(N3CCCC3)n2)c(OC)c1OC	-14	5.3%	-3%	1%
CCOC(=O)c1c(C)c(C(=O)Nc2ccc(N(C)C)cc2)c(C)n1CC	-11	-6.3%	-1%	-2%
CN1C(=O)CC(C(=O)O)SC1=Nc1cc(Cl)cc(Cl)c1 (stereo not given)	9	3.0%	-14%	-3%
Cc1c(NC(=O)c2cc3c(s2)CCCC3)c(=O)n(-c2ccccc2)n1C	3	0.6%	-17%	5%
CCOC(=O)[C@@H]1[C@H]2COc3ccc(Br)cc3[C@H]2N2C(=O)N(c3ccc(Br)cc3)C(=O)[C@]12C	x	-4.9%	3%	8%
O=C(CN1CCCCC1)N1CCc2ccccc21	x	-0.5%	-6%	-19%
COc1cc(C)ccc1Oc1nc(-c2ccccc2O)nc2ccccc12	-16	4.0%	6%	6%
Cc1ccc(CNC(N)=S)cc1	-7	-0.8%	-5%	-12%
C/C=C/C(=O)OCC(=O)Nc1nc2ccc(C)cc2s1	-7	0.6%	-39%	4%
O=C(Cc1cccs1)N/N=C/C(Cl)=C/c1ccccc1	7	-11%	-56%	-2%
COc1ccc(NC(=S)NCCc2ccc(F)cc2)c(OC)c1	-5	-1.7%	0%	-11%
Cc1occc1C(=O)NNC(=O)Cc1ccccc1	-1	-6.7%	-5%	3%
